NS1 function inh: influenza NS1 inhibition. S. cerevisiae slowed by influenza A NS1, growth recovery by OD600. Potency, µM (titrated, usually from 46.1 µM), for inactives: top-dose activity, positive = more growth. actives 0.4% (n = 270,000). AID 2326; active means well fitted rising curve with a large enough effect; inconclusive means small, poorly fitted or top-dose-only effect; inactive means no such curve, though single readings can be large or run the other way; note: nearly all actives have a fitted effect of over 50% in size
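Growth recovery, yeast-based: influenza A NS1 expressed in S. cerevisiae causes slow growth, and suppressors are detected by OD600. The parent strain without NS1 is used as positive control.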
LASV entry inh: inhibitors of Lassa virus binding or cell entry | Lassa virus pseudotype entry inhibition, cell reporter; control for the full effect not named in the record | AID 540256 | actives 1.2% (n = 300,000) | Potency, µM (doses to about 37.9 µM), inactives show at the top dose activity change, negative = inhibition, actives largely listed as inhibitors; active means well fitted inhibition curve with a large enough effect; inconclusive means small, poorly fitted or top-dose-only effect, or effect the other way; inactive means flat fitted curve, though single readings scatter; tested in HEK293 cells; note: % is set by controls: 0 for no effect and ±100 for the full control effect; nearly all actives have a fitted effect of over 50% in size; luciferase read-out
MARV entry inh: blocks Marburg virus binding to or entry into cells. Marburg virus pseudotyped entry inhibition, cell reporter; control for the full effect not named in the record; about a third of the inactives were read at about 46 µM. Potency, µM (top dose mostly 37.8 µM), inactives show top-dose activity change, negative = inhibition, most hits filed as inhibitors. actives 1.8% (n = 300,000); active = well fitted inhibition curve with a large enough effect; inconclusive = small, poorly fitted or top-dose-only effect, or effect the other way; inactive = flat fitted curve, though single readings scatter; tested in HEK293 cells; about a fifth of its hits are not listed in these tables; note: % is set by controls: 0 for no effect and ±100 for the full control effect; luciferase read-out
SARS PLP yeast: SARS-CoV PLP inhibition in yeast; actives 0.19% (n = 330,000); AID 485353; S. cerevisiae expressing SARS-CoV PLpro, growth rescue; control for the full effect not named in the record; Potency, µM (highest dose often 32.9 µM), for the others: top-dose activity, positive = growth rescue; active means well fitted rising curve with a large enough effect; inconclusive means small, poorly fitted or top-dose-only effect; inactive means no such curve, though single readings can be large or run the other way; note: 0% is about no effect; nearly all actives have a fitted effect of over 55% in size; growth read by luminescence after 48 h
Cruzain inh Det: blocks cruzain activity in presence of Triton detergent; actives 0.43% (n = 200,000); P25779; purified cruzain, Z-FR-AMC fluorescence, 0.01% Triton; Potency, µM, for the others: max response, negative = inhibition, most hits filed as inhibitors;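 note: plate controls were neutral wells for no effect and buffer without enzyme for full effect; nearly all actives have a fitted effect of over 40% in size; top concentration of the series not given in the record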
Target sequence (P25779 123-467 limits assumed): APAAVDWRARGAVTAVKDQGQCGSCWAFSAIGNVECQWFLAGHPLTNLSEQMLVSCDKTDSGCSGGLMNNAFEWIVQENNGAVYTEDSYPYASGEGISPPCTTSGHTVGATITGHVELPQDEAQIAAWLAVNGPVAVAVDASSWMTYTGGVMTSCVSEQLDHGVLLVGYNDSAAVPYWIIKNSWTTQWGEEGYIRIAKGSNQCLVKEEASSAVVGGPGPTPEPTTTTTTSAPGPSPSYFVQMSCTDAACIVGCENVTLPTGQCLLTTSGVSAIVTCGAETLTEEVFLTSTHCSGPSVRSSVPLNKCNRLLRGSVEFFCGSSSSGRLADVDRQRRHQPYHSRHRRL
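Cysteine protease activity tested under reducing, mildly acidic conditions (100 mM sodium acetate pH 5.5, 5 mM DTT) plus 0.01% Triton X-100. Cruzain 1.5 nM; substrate Z-FR-AMC 2 uM; 15 min compound preincubation at room temperature.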
RE007 growth inh: less growth of the S. pombe RE007 Vpr strain. S. pombe RE007 Vpr strain, BacTiter-Glo ATP luminescence, 24 h; control for the full effect not named in the record. Potency, µM (titrated, usually from 92.2 µM), for inactives: top-dose activity change, negative = less growth. actives 0.21% (n = 360,000); active = well fitted falling curve with a large enough effect; inconclusive = small, poorly fitted or top-dose-only effect; inactive = no such curve, though single readings can be large or run the other way;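 note: % is set by controls: 0 for no effect and ±100 for the full control effect; nearly all actives have a fitted effect of over 50% in size; the assay follows cell death caused by Vpr and the record does not say whether a fall means rescue or toxicity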
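Fission yeast strain RE007, carrying one chromosomally integrated HIV-1 vpr copy, was seeded at OD 0.01 in PMG+AL medium with 23 nL pinned compound. After 24 h at 30 °C and 99% humidity, viability was read by BacTiter-Glo luminescence.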
Cruzain inh noDet: blocks cruzain activity in detergent-free assay; P25779; purified cruzain, Z-FR-AMC fluorescence, no detergent; Potency, µM, inactives show max response, negative = inhibition, hits mostly inhibitors; actives 2.3% (n = 200,000);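 note: plate controls were enzyme without inhibitor for no effect and buffer without enzyme for full effect; nearly all actives have a fitted effect of over 40% in size; top concentration of the series not given in the record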
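Detergent-free condition (0.00005% Triton X-100) in acetate buffer pH 5.5 with DTT. 1.5 nM enzyme and compound were pre-mixed 15 min, then 2 uM Z-FR-AMC substrate added; reaction progress from fluorescence change between first and third reads (60 s).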
StopGo reporter: FMDV 2A StopGo reporter, luciferase signal. actives 1.2% (n = 410,000). human cells with a luciferase reporter of 2A StopGo recoding; control for the full effect not named in the record. AID 1159524. Potency, µM (titrated, usually from 57.9 µM), for the others: at the top dose signal change, negative = less light; active = well fitted falling curve with a large enough effect; inconclusive = small, poorly fitted or top-dose-only effect; inactive = no such curve, though single readings can be large or run the other way; tested in HEK293T cells; note: % is set by controls: 0 for no effect and ±100 for the full control effect; nearly all actives have a fitted effect of over 45% in size; luciferase light after 4 h
The depositor's hits bear a star; ? = inconclusive; nt = not tested or not shown; & = joins results of further samples; [ ] = another dose, or the depositor's remark. Unless noted, calls come from the whole dose curve; as a rule, active = well fitted curve in the direction sought with a large enough effect; inconclusive = small, poorly fitted or top-dose-only effect, or another doubt; inactive = no such curve, though single readings can be large; an effect the other way counts as inactive or inconclusive. Potency is the fitted concentration of half-maximal effect.

SMILES	NS1 function inh	LASV entry inh	MARV entry inh	SARS PLP yeast	Cruzain inh Det	RE007 growth inh	Cruzain inh noDet	StopGo reporter
Cc1nn(-c2ccccc2)c(N2CCCC2)c1/C=C1\N=C(c2ccccc2)OC1=O	4%	35%	7%	-20%	1.6µM*	-8%	0.79µM*	-6%
O=C(CCCC(=O)OCC(Cl)=C(Cl)Cl)Nc1cccc2ccccc12	-12%	-1%	5%	1%	-6.7%	89%	-4%	1%
COc1ccc(CCC(=O)Nc2cccc(S(=O)(=O)N(C)C)c2)cc1OC	-8%	-9%	-16%	6%	2.2%	5%	9%	?
CC(=O)NCC(=O)OCC(=O)c1ccc(Cl)cc1	-1%	nt	nt	1%	nt	4%	nt	4%
CN(C)/C=N/c1nc2ncc(-c3ccc(Cl)cc3)c(/N=C/N(C)C)n2n1	nt	-1%	4%[46.1 µM]	5%	nt	10%	nt	-16%
CCN(CC)C(=O)c1ccc(NC(=O)c2cc(-n3cnnc3)ccc2Cl)cc1	5%	?	-2%	4%	7.1%	3%	7%	8%
CCCCN(C)CCCNC(=O)CN1C(=O)COc2ccc(S(=O)(=O)N3CCOCC3)cc21	-5%	-2%[46.1 µM]	-4%&-4%[46.1 µM]	4%	1.3%	-1%	-9%	-28%&-21%
CCOC(=O)CSc1nc(C)cc2c1C(=O)OC2	nt	30%[46.1 µM]	6%[46.1 µM]	1%	nt	-9%	nt	-3%
CCCc1cc(C(=O)Nc2ccc(C(=O)OC)cc2)cs1	-3%	11%[46.1 µM]	-4%[46.1 µM]	6%	nt	-11%	nt	-3%
COc1ccc(-n2c(Cc3ccccc3)nnc2SCc2nc(-c3ccccc3C)no2)cc1	nt	-22%[46.1 µM]	?	nt	-6.9%	nt	-2%	4%

Overlap with the part before: 5 entries; new compounds follow.
SMILES	NS1 function inh	LASV entry inh	MARV entry inh	SARS PLP yeast	Cruzain inh Det	RE007 growth inh	Cruzain inh noDet	StopGo reporter
CCN(CC)C(=O)c1ccc(NC(=O)c2cc(-n3cnnc3)ccc2Cl)cc1	5%	?	-2%	4%	7.1%	3%	7%	8%
CCCCN(C)CCCNC(=O)CN1C(=O)COc2ccc(S(=O)(=O)N3CCOCC3)cc21	-5%	-2%[46.1 µM]	-4%&-4%[46.1 µM]	4%	1.3%	-1%	-9%	-28%&-21%
CCOC(=O)CSc1nc(C)cc2c1C(=O)OC2	nt	30%[46.1 µM]	6%[46.1 µM]	1%	nt	-9%	nt	-3%
CCCc1cc(C(=O)Nc2ccc(C(=O)OC)cc2)cs1	-3%	11%[46.1 µM]	-4%[46.1 µM]	6%	nt	-11%	nt	-3%
COc1ccc(-n2c(Cc3ccccc3)nnc2SCc2nc(-c3ccccc3C)no2)cc1	nt	-22%[46.1 µM]	?	nt	-6.9%	nt	-2%	4%
N#Cc1c(NC(=O)CSCC(=O)O)sc2c1CCCC2	-1%	-11%	-11%	2%	0.1%	5%	-3%	-7%
Cc1cc(C)n2nc(Nc3ccccc3)cc2n1	?	3%	3%	10%	-4.7%	-19%	18%	nt
CCC1(c2ccccc2)NC(=O)N(CC(=O)Nc2ccc(S(=O)(=O)N3CC(C)CC(C)C3)cc2)C1=O (stereo not drawn)	nt	-20%	?	nt	nt	8%	nt	-16%
CC(=O)N1c2ccccc2CC1C(=O)N1CCN(c2cc(Cl)ccc2C)CC1 (stereo not drawn)	nt	-1%[46.1 µM]	nt	nt	-3.1%	nt	?	?
O=C(O)COc1ccc2c3c(c(=O)oc2c1)CCCC3	2%	2%[46.1 µM]	0%[46.1 µM]	0%	nt	-4%	nt	-7%
CC1Cc2cc(S(=O)(=O)CCC(=O)Nc3ccc(F)c(Cl)c3)ccc2N1C(=O)C1CC1 (stereo not drawn)	nt	1%[46.1 µM]	nt	nt	-5.2%	nt	-5%	-27%
Cn1c(N)c(C(=O)COC(=O)/C=C/c2ccc(S(=O)(=O)N3CCOCC3)cc2)c(=O)n(C)c1=O	-5%	nt	nt	0%	nt	6%	nt	-23%
O=C1CC(NCCc2ccccc2)C(=O)N1CCc1ccccc1 (stereo not drawn)	0%	6%	-20%	-5%	nt	6%	nt	2%
COc1ccc(C(=O)COc2ccc(F)cc2)c(O)c1	-72%	-7%	-13%[46.1 µM]	2%	nt	-14%	nt	35%[activator]
CSc1cccc(NC(=O)C2CCCN(S(=O)(=O)c3ccc(F)cc3)C2)c1 (stereo not drawn)	-46%	?	?	-13%	-4.4%	-1%	-9%	-29%

An excerpt from above, limited to NS1 function inh:
Structure	NS1 function inh
N#Cc1c(NC(=O)CSCC(=O)O)sc2c1CCCC2	-1%
Cc1cc(C)n2nc(Nc3ccccc3)cc2n1	?

Following part
SMILES	NS1 function inh	LASV entry inh	MARV entry inh	SARS PLP yeast	Cruzain inh Det	RE007 growth inh	Cruzain inh noDet	StopGo reporter
COC(=O)CSc1[nH]c2cc(C)ccc2c1[N+](=O)[O-]	4%	3%	3%	1%	nt	23%	nt	-20%
O=Cc1sc(Nc2ccccc2)nc1Cl	-30%	nt	nt	-12%	nt	?	nt	4%
Cc1ccccc1-n1c(SCC(=O)N/N=C/c2ccccc2OCC(=O)O)nc2ccccc2c1=O	4%	6%	?	-1%	nt	13%	nt	-7%
Oc1c(Br)cc(Br)c2cccnc12	nt	nt	nt	nt	8.1%	?	-9%	0%&-13%
CCOC(=O)c1[nH]nc2c1C(=O)N(CC)C2=O	-6%	4%	6%[46.1 µM]	8%	2.3%	10%	-3%	-20%
Cc1cccn2cc(-c3cccc(NC(=O)C(C)C)c3)nc12	nt	14%[46.1 µM]	-3%[46.1 µM]	nt	-2.0%	nt	-6%	34%[activator]
O=C(NCCCN1CCOCC1)c1sc2cc(Cl)ccc2c1Cl	nt	14%	?	1%	nt	?	nt	-17%
CCOC(=O)c1[nH]c(C)c(C(=O)OCc2ccccc2F)c1C	11%	5.6µM*	?	6%	nt	-6%	nt	4%
Cc1ccc(N2NC(=O)/C(=C/c3ccc(-c4ccc(Cl)c(C(=O)O)c4)o3)C2=O)cc1C	5%	nt	nt	0%	nt	-2%	nt	-8%
Cc1ccc(S(=O)(=O)N2CCCC(c3nc4c(nnn4Cc4ccc5c(c4)OCCO5)c(=O)[nH]3)C2)cc1 (stereo not drawn)	17%	nt	nt	-3%	nt	-19%	nt	-20%
CC(C)NC(=O)c1cnc2sc(N3CCCCCC3)nn2c1=O	nt	1%[46.1 µM]	nt	nt	-7.6%	nt	1%	-7%
Cc1ccccc1NCC(=O)N/N=C/c1ccc([N+](=O)[O-])cc1	0%	0%	?	-7%	-4.2%	7%	-20%	-18%
Cc1noc(-c2ccc(N3CCCCC3C)c([N+](=O)[O-])c2)n1 (stereo not drawn)	nt	20%[46.1 µM]	-26%[46.1 µM]	nt	-4.9%	nt	?	27%
O=C(CSc1nnc(COc2ccccc2)o1)NCCc1ccccc1	-1%	10%	8%	-5%	-0.1%	-17%	1%	-14%
CC1(C)C(=O)OC(c2cccc([N+](=O)[O-])c2)C2(CCCCC2)C1=O (stereo not drawn)	?	nt	nt	1%	nt	16%	nt	-15%
O=C(CSc1nc(=O)n2ccccc2n1)NCc1ccc(F)cc1	nt	3%	-10%	0%	nt	5%	nt	-2%
Brc1ccc(N/N=C(/N=Nc2nn[nH]n2)c2ccccc2)cc1	7%	nt	nt	?	nt	-1%	nt	-23%
CCn1ccc2c(OCC(=O)NCCc3ccc(OC)c(OC)c3)cccc2c1=O	nt	0%	-2%[46.1 µM]	2%	nt	1%	nt	-22%
Cc1ccc(-c2ccc(=O)n(CCC(=O)N3CCN(Cc4ccccc4)CC3)n2)cc1	-3%	-14%[46.1 µM]	?	1%	nt	4%	nt	?
CCC(=O)NC(=S)Nc1ccc(NC(=O)c2ccc(C)c([N+](=O)[O-])c2)cc1	?	?	-1%	5%	-2.5%	-2%	10µM*	-19%
O=C(Nc1cc(Br)ccc1O)c1cc(-c2cccs2)on1	-11%	1%[46.1 µM]	6%[46.1 µM]	-2%	nt	-14%	nt	0%
CCOc1ccccc1NC(=O)CSc1nc2cccnc2n1C	-52%	-9%	-17%	0%	1.8%	-3%	3%	?
COC(=O)c1cc2cc(NS(=O)(=O)c3ccc(C)cc3)ccc2s1	19%	8%	-4%	28%	-9.9%	8%	-17%	28%
CC(C)(C)NCCOc1ccc(Br)cc1	0%	-4%	20%	-5%	6.3%	0%	5%	-9%
COc1ccc(CCNC(=O)C(C)Sc2ccc(C)cc2)cc1OC (stereo not drawn)	-16%	?	-18%	-5%	-3.2%	6%	11%	?
O=C(NCCN1C(=O)C2C3C=CC(C3)C2C1=O)Nc1ccccn1 (stereo not drawn)	6%	nt	nt	0%	-2.9%	-4%	-6%	5%
Cc1ccc(S(=O)(=O)N2CCN(C(=O)C(C)Cn3nc(C)c(C)c3C)CC2)cc1 (stereo not drawn)	5%	-11%	10%	-2%	nt	2%	nt	0%
O=C(CN1CCC(n2nnc3cc(F)ccc32)CC1)Nc1ccc2c(c1)CCC2	-8%	2%	?	-5%	-3.8%	-9%	-23%	?
N#Cc1ccc(NC(=O)COC(=O)C2Cc3ccccc3CN2C(=O)c2ccccc2)cc1 (stereo not drawn)	3%	9%	?	2%	-5.1%	-23%	1%	11%
Cc1nnc(NC(=O)c2ccc(S(=O)(=O)N3CCOCC3)cc2)s1	2%	18%	4%[46.1 µM]	1%	nt	21%	nt	-10%
CCNC(=O)C/C(C)=N/NC(=O)C12CC3CC(CC(C3)C1)C2	5%	?	23%	2%	2.1%	-8%	-8%	0%
CCOC(=O)C(Cc1ccccc1)(NC(C)=O)C(=O)OCC	6%	-8%	21%	-3%	-7.8%	15%	3%	nt
C/C(CCc1ccccc1)=N\NC(=O)CC(=O)NCCc1ccccc1	-3%	-16%	23%	-4%	-2.7%	nt	0%	-18%
CCC1(c2ccccc2)C(=O)NC(=O)NC1=O	nt	nt	nt	-1%	-3.4%	7%	1%	-17%
Cc1ccc2c(c1)N(CC(=O)NCC(C)c1ccccc1)C(=O)c1cccnc1O2 (stereo not drawn)	?	nt	nt	6%	nt	6%	nt	-10%

Screening results from PubChem.
